Screening results as filed in PubChem.
Rango release inh – inhibition of RanGTP-driven Rango-importin beta dissociation; hit rate 0.071% among 340,000; Potency, µM (top dose mostly 46.1 µM), for inactives: at the highest dose activity change, negative = inhibition; O95149+P62826; Biochemical FRET Rango-importin beta, RanGTP-induced dissociation; AID 540253; active means falling FRET ratio curve, often poorly fitted, with flat reads before Ran was added; inconclusive means other falling curves, or compound fluorescence or quenching; inactive means flat or rising ratio curve;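 further: potency means the concentration at half of the fitted maximal effect; % of control where 0% means no effect; nearly all actives have a fitted effect of over 45% in size; -100% = wells without RanGTP and RCC1; the record marks most hits as doubtful in a second field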
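FRET read at 45 min, room temperature: inhibitors block the CFP/YFP signal rise when RanGTP (0.6 uM Ran, 2 mM GTP, 0.2 uM RCC1) frees Rango (0.1 uM) from importin beta (0.25 uM). Pre-read after 5 min compound exposure flags interference.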
Rango complex inh – prevents formation of the Rango-importin beta complex; Potency, µM (top dose mostly 92.2 µM), inactives show at the top dose inhibition of complex formation; AID 540263; hit rate 0.031% among 340,000; Rango CFP/YFP FRET sensor + importin beta, 45 min; active = rising FRET ratio curve, often small or poorly fitted; inconclusive = mostly compound fluorescence or quenching in the first reads; inactive = flat curves in all reads;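 further: potency means the concentration at half of the fitted maximal effect; 0% = DMSO wells and 100% = buffer wells lacking importin beta; nearly all actives have a fitted effect of over 15% in size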
Target sequence (Q14974 whole entry, looked up): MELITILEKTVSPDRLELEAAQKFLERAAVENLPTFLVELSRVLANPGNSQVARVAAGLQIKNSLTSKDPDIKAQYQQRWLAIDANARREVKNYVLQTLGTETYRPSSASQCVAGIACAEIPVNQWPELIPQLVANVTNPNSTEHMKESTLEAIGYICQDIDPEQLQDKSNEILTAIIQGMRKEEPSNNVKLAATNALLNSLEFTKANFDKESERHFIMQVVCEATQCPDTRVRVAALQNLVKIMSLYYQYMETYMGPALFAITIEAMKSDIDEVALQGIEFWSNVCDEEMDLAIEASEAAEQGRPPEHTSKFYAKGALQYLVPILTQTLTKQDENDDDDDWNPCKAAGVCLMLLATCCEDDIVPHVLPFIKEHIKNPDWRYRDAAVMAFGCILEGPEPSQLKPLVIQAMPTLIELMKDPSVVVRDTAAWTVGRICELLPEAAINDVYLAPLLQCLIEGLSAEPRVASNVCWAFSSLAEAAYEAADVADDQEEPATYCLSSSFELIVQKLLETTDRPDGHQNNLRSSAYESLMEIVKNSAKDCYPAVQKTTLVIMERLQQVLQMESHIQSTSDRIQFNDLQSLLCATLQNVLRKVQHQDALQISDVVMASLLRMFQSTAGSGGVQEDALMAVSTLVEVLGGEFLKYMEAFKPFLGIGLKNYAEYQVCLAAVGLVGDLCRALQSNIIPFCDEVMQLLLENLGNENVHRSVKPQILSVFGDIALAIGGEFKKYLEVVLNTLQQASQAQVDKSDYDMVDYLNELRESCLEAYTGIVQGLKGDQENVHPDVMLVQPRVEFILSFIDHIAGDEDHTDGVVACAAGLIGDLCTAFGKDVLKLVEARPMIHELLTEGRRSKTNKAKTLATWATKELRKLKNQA
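FRET biosensor (snurportin 1 IBB flanked by EYFP and cerulean), 50 nM, with compound 5 min, then 0.125 microM importin beta in PBS, 1 mM DTT, 0.02% Tween-20, 0.1% BSA. CFP/YFP ratio read after 45 min at room temperature; pre-read flags interference.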
GLA inh pH 4.5 – blocks human alpha-galactosidase A at pH 4.5. P06280. purified enzyme, 4-MU-alpha-Gal fluorescence, pH 4.5. activity change, negative = inhibition, % at 105 µM. 230,000 tested, under 10 active. AID 1467; inconclusive = small, poorly fitted or top-dose-only inhibition, or a rising curve; inactive = flat fitted curve, though single readings scatter; no compound was filed as active;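 further: 0% = full activity with enzyme and -100% = basal without enzyme; dose as in the result columns while the protocol names 77 µM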
miR-21 reporter – raises the signal of a miR-21 reporter. HeLa miR-21 FLuc reporter, luciferase, 48 h. Potency, µM (series often up to 38.3 µM), without a hit: top-dose reporter change, positive = more light. 340,000 tested, under 10 active. AID 2288; active = well fitted rising curve with a large enough effect; inconclusive = small, poorly fitted or top-dose-only effect; inactive = no such curve, though single readings can be large or run the other way;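 further: % of control where 0% means no effect; miR-21 action dims this reporter so a rising signal means less miR-21 action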
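Using DMEM plus 10% FBS, HeLa miR-21-FLuc cells are incubated with test compounds (final up to about 40uM) for 48 hours; firefly luciferase signal is then imaged following reagent-mediated lysis.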
Starred values were filed as active, the others as inactive; ? = inconclusive; nt = not tested or not shown; & = joins results of further samples.

| entry | Compound | Rango release inh | Rango complex inh | GLA inh pH 4.5 | miR-21 reporter |
| --- | --- | --- | --- | --- | --- |
| 1 | CC(C)(C)c1cc(NC(=O)CSc2nncs2)n(-c2ccccc2)n1 | -9.7% | -0.3% | -9.1 | -1.5% |
| 2 | COC(=O)CSc1nnc(-c2ccoc2C)n1-c1ccc(C)cc1 | 4.1% | -3.2% | 4.4 | -3.6% |
| 3 | CN(Cc1ccon1)Cc1cn(C)nc1-c1ccc(Oc2ccccc2)cc1 | -1.2% | 0.3% | -8.8 | 3.8% |
| 4 | CCOC(=O)N1CCc2c(sc3c2c(=O)n(Cc2ccccc2)c(=O)n3CC(=O)NCCOC)C1 | -10.0% | 2.7% | -14.2 | -2.9% |
| 5 | COC(=O)c1cn(NC(=O)C2COc3ccccc3O2)c(=O)c2ccccc12 (stereo not given) | -17.5% | 0.1% | -0.9 | -0.2% |
| 6 | CCC(CO)NS(=O)(=O)c1cc(-c2nn(C)c(=O)c3ccccc23)ccc1C (stereo not given) | 0.2% | -2.8% | -14.4 | -5.3% |
| 7 | Cc1[nH]c2ccccc2c1/C=N/NC(=O)CNC(=O)c1cccs1 | 14.1% | -0.7% | 1.3 | 8.3% |
| 8 | Cn1c(N)c(C(=O)CSc2nnc(C3CC3)n2-c2ccccc2)c(=O)n(C)c1=O | 6.5% | 1.2% | nt | nt |
| 9 | CCOc1ccccc1NC(=O)CN(Cc1ccccc1)S(C)(=O)=O | -5.3% | -2.9% | -25.4 | 0.6% |
| 10 | Cc1ccc(NC(=O)CNC(=O)c2cccs2)c(O)c1 | 12.4% | -1.7% | nt | nt |
| 11 | CCCC(=O)NC(=S)Nc1ccc(N2CCOCC2)c(Cl)c1 | 5.7% | 0.6% | -3.0 | -31.0% |
| 12 | CC1CC(C)CN(S(=O)(=O)c2ccc3c(c2)CCN3C(=O)C2CC2)C1 (stereo not given) | 9.4% | -0.1% | nt | -6.7% |
| 13 | O=C(O)C1=C[C@@H](c2ccc(C(F)(F)F)cc2)C[C@@H](OCc2ccc(CO)cc2)O1 | -14.5% | -0.1% | -2.2 | -0.9% |
| 14 | Cc1cccc(NC(=O)CSc2nnc(-c3ccco3)c(-c3ccco3)n2)c1C | -6.0% | -1.2% | 0.3 | 1.0% |
| 15 | O=C(O)CN1C(=O)CC(Cc2ccc(Cl)cc2)C1=O (stereo not given) | 0.2% | 1.2% | -0.7 | -1.9% |
| 16 | O=C(CSc1nc2ccccc2[nH]1)c1ccc2c(c1)OCO2 | -4.6% | -2.0% | 2.5 | -43.2% |
| 17 | COc1cccc(-c2nc(Oc3cc(C)cc(C)c3)c3ccccc3n2)c1O | nt | nt | -6.8 | -20.8% |
| 18 | C[C@@H](C(=O)NCC1CC1)[C@@H]1C[C@@]1(C)[C@@H](NC(=O)OCc1ccccc1)c1ccccc1 | 30.0% | 4.0% | 7.9&2.1 | -1.8% |
| 19 | CCOc1cccc(OCCOCCOc2ccccc2C(C)=O)c1 | 5.3% | -0.3% | -29.2 | -10.5% |
| 20 | CC(C)(C)C(=O)N1CCC[C@H]1C(O)(c1ccccc1)c1ccccc1 | 4.5% | 1.2% | 11.0 | -2.6% |
| 21 | COc1ccc(C(=O)NCCS(=O)(=O)N2CCN(Cc3ccccc3)CC2)cc1 | -6.8% | 1.5% | nt | nt |
| 22 | CC1(C)c2cc(O)ccc2OC1N1CCOCC1 (stereo not given) | -15.2% | 0.8% | nt | -11.9% |
| 23 | Cc1ccc(S(=O)(=O)N(C)C)cc1NC(=O)c1ccc(OC(F)(F)F)cc1 | -14.0% | -0.3% | -1.0 | 3.1% |
| 24 | CC(Sc1nc(NCc2ccccc2)nc(N2CCOCC2)n1)C(=O)Nc1ccccc1 (stereo not given) | 29.2% | -3.4% | -0.8 | 0.7% |
| 25 | COc1ccc(C(C)(C)C)cc1NC(=O)COC(=O)c1nc2nccc(C)n2n1 | 1.7% | 1.6% | nt | nt |
| 26 | CC(=O)c1ccc(S(=O)(=O)N2CCC(NC(=O)Nc3cccc(F)c3)CC2)cc1 | 1.4% | -2.1% | -1.6 | 4.9% |
| 27 | CC(=O)N1CCC(C(=O)Nc2cc(C)cc(C)c2)CC1 | -6.8% | -0.2% | -5.4 | -1.4% |
| 28 | O=C(Nc1ccccc1Cl)ON=C1c2ccccc2-c2ccccc21 | 0.8% | ? | -2.3 | -23.8% |
| 29 | COc1ccc2cc3cc(C(=O)NCc4ccc5c(c4)OCO5)oc3nc2c1 | -7.1% | ? | 12.3 | -3.4% |
| 30 | O=C1NCCN1CCNS(=O)(=O)c1ccccc1[N+](=O)[O-] | -0.8% | 3.8% | nt | 2.9% |
| 31 | C=C(C)c1cccc(C(C)(C)NC(=O)NCc2ccncc2)c1 | -0.2% | 2.0% | 0.4 | 6.2% |
| 32 | CCCCOc1ccc(/C=N/NC(=O)c2nnn(-c3nonc3N)c2CN2CCCCCC2)cc1 | 2.3% | -1.0% | nt | nt |
| 33 | CC1(C)C(C=C(Cl)Cl)C1C(=O)N1CCN(c2ccccc2)CC1 (stereo not given) | 2.2% | 5.9% | -4.2 | 13.7% |
| 34 | N#CC1=C(N)Oc2n[nH]c(-c3ccc(F)cc3)c2C1c1ccncc1 (stereo not given) | 39.1% | 3.4% | -0.6 | 2.0% |
| 35 | COc1cc(/C=C(\C#N)C(=O)NC(C)C)cc(Cl)c1O | ? | ? | -0.4 | -3.9% |
| 36 | COc1cc2cc(C(c3nnnn3C(C)(C)C)N3CCc4ccccc43)c(=O)[nH]c2cc1OC (stereo not given) | 8.6% | 0.0% | -10.9 | -26.3% |
| 37 | C=CCOC(=O)C1=C(C)NC(SCC(=O)OCC)=C(C#N)C1c1ccc(C)cc1 (stereo not given) | -12.0% | -2.3% | -6.0 | -4.3% |
| 38 | CC(C)(C)C1CCc2c(sc(NC(=O)CSc3nnc(-c4ccccc4)o3)c2C#N)C1 (stereo not given) | -4.3% | 0.6% | ? | -14.0% |
| 39 | O=C(/C=C/c1ccccc1)/C=C/c1ccccc1 | -4.7% | 0.3% | 4.3 | ? |
| 40 | CCCc1nnc(NC(=O)CCC(=O)N2CCN(CCOc3ccc(C)cc3)CC2)s1 | 1.0% | 0.0% | -1.0 | 8.5% |
| 41 | O=C(c1ccco1)N1CCN(C(=O)c2cn(-c3ccccc3)nc2-c2ccccc2)CC1 | 7.7% | 1.0% | nt | nt |
| 42 | COc1cccc(CN2CCN(S(=O)(=O)c3ccccc3)CC2)c1OC | -8.2% | ? | nt | nt |
| 43 | FC(F)(F)c1ccc(C2[C@H]3CN(Cc4ccc(-c5ccccc5)cc4)[C@H](c4ccccc4)C34CC2(c2cccnc2)C4)cc1 (stereo not given in full) | -0.9% | -3.4% | -3.2&0.3 | 6.7% |
| 44 | O=C(c1cc2cc(Cl)ccc2oc1=O)N1CCCC1 | -17.3% | -6.7% | -2.5 | -8.9% |
| 45 | Cc1cc(C(=O)COC(=O)C2=NNC(=O)CC2)c(C)n1-c1ccc(OC(F)F)cc1 | 0.1% | -0.7% | 5.4 | 0.4% |
| 46 | COc1cc(NC(=O)C2CC(=O)N(CCc3ccc(F)cc3)C2)cc(OC)c1OC (stereo not given) | 0.9% | 1.7% | nt | -3.9% |
| 47 | Oc1ccc(C[C@@H]2CNCCN2CC2(c3ccccc3)CC2)cc1 | -4.0% | 3.7% | nt | nt |
| 48 | CCn1c(SCC(=O)Nc2ccc3c(c2)n(C)c(=O)n3C)nnc1-c1ccncc1 | -3.9% | 0.7% | nt | 4.7% |

Reprinted at random: three entries already listed, in no set order.
| entry | Compound | Rango release inh | Rango complex inh | GLA inh pH 4.5 | miR-21 reporter |
| --- | --- | --- | --- | --- | --- |
| 42 | COc1cccc(CN2CCN(S(=O)(=O)c3ccccc3)CC2)c1OC | -8.2% | ? | nt | nt |
| 45 | Cc1cc(C(=O)COC(=O)C2=NNC(=O)CC2)c(C)n1-c1ccc(OC(F)F)cc1 | 0.1% | -0.7% | 5.4 | 0.4% |
| 46 | COc1cc(NC(=O)C2CC(=O)N(CCc3ccc(F)cc3)C2)cc(OC)c1OC (stereo not given) | 0.9% | 1.7% | nt | -3.9% |

Remaining list, next part
| entry | Compound | Rango release inh | Rango complex inh | GLA inh pH 4.5 | miR-21 reporter |
| --- | --- | --- | --- | --- | --- |
| 49 | COc1cc2[nH]c(=O)n(CCCC(=O)N3CC=C(c4ccccc4)CC3)c(=O)c2cc1OC | 4.8% | 1.4% | 5.1 | -3.9% |
| 50 | NC(=O)c1c(NC(=O)CSc2nnc(Cc3ccccc3)n2Cc2ccco2)sc2c1CCC2 | 0.8% | ? | 0.7 | 11.9% |
| 51 | CCn1nc(C)c([N+](=O)[O-])c1C(=O)NNC(=O)c1ccc(Cl)cc1 | -4.2% | 3.2% | -5.3 | 0.9% |
| 52 | O=C(Cc1ccsc1)Nc1ccc(Cl)cc1Cl | 3.3% | -2.8% | nt | -14.9% |
| 53 | CCCc1cc(NCCCO)n2c(nc3ccccc32)c1C#N | ? | ? | ? | -1.5% |
| 54 | CC(=O)NC(CCS(C)(=O)=O)C(=O)Nc1c(F)cccc1F (stereo not given) | -1.6% | -4.3% | -10.3 | -1.6% |
| 55 | COC(=O)/C(=C\c1c[nH]c2ccccc12)NC(C)=O | -7.1% | ? | ? | 2.1% |
| 56 | COC(=O)CNc1nc(Cl)nc(Nc2ccc(C)cc2)n1 | 2.7% | 2.0% | -5.3 | -0.9% |
| 57 | CCOc1cccc2cc(-c3csc(NC(=O)CCC(=O)NCCCN4CCC(C)CC4)n3)c(=O)oc12 | nt | nt | -21.6 | -70.6% |
| 58 | CC(C)(C)C(=O)COC(=O)c1ccc2c(c1)C(=O)N(Cc1ccco1)C2=O | 2.6% | 0.3% | nt | 7.2% |
| 59 | COCN(C#N)c1nc(N(C)C)nc(N(C)C)n1 | 2.0% | 2.0% | 3.3 | -2.5% |
| 60 | Cc1cc(C(=O)OCC(=O)N2c3ccccc3CC2C)c(C)o1 (stereo not given) | -3.4% | 3.5% | -6.9 | -21.3% |
| 61 | Cc1c(-c2ccccc2)nc(-c2ccccc2)[nH]c1=O | 0.2% | -1.1% | -2.7 | -14.1% |
| 62 | CC(CCc1ccccc1)NC(=O)/C=C/c1ccc(F)cc1 (stereo not given) | nt | nt | -3.8 | 3.9% |
| 63 | Cc1cccc(OCCOC(=O)CN2C(=O)NC3(CCCC3)C2=O)c1 | 1.4% | 1.1% | nt | nt |
| 64 | COC(=O)C1=C(CS(=O)(=O)c2ccc(Cl)cc2)NC(=O)NC1c1ccc(O)cc1 (stereo not given) | 6.2% | 2.4% | nt | 2.6% |
| 65 | CN(C)CCCNC(=O)C[C@H]1C[C@H](C(=O)N2CCCCC2)[C@@]2(C)c3[nH]c4ccc(Cl)cc4c3CCN2C1=O | 2.9% | -2.2% | nt | nt |
| 66 | CCOC(=O)c1[nH]cnc1C(=O)Nc1ccccc1C | 0.2% | -5.5% | 0.2 | 0.1% |
| 67 | COc1ccc(-n2cc(CN(C)C3CCOCC3)c(-c3cccc(F)c3)n2)cc1 | -10.2% | 0.6% | -7.5 | 1.8% |
| 68 | C/C(=N/O)c1ccccn1 | -1.1% | -3.2% | -4.6 | -1.1% |
| 69 | COc1ccc(-n2cc(C(=O)O)c(=O)cc2C)cc1 | -17.3% | -0.3% | -18.2 | -3.4% |
| 70 | CCOc1ccc(CN2C(=O)c3ccccc3C2C(=O)NCc2cccnc2)cc1 (stereo not given) | 5.1% | -2.6% | -6.7 | 0.7% |
| 71 | N#CN=C(c1ccccc1)c1ccccc1 | 10.3% | 0.1% | nt | -0.6% |

Profiles, quoted from the list. Screens in order: Rango release inh, Rango complex inh, GLA inh pH 4.5, miR-21 reporter
Cc1cccc(OCCOC(=O)CN2C(=O)NC3(CCCC3)C2=O)c1 is entered as 1.4%, 1.1%, nt, nt
CN(C)CCCNC(=O)C[C@H]1C[C@H](C(=O)N2CCCCC2)[C@@]2(C)c3[nH]c4ccc(Cl)cc4c3CCN2C1=O is entered as 2.9%, -2.2%, nt, nt
CCOc1ccc(CN2C(=O)c3ccccc3C2C(=O)NCc2cccnc2)cc1 (stereo not given) is entered as 5.1%, -2.6%, -6.7, 0.7%
COc1ccc(-n2cc(CN(C)C3CCOCC3)c(-c3cccc(F)c3)n2)cc1 is entered as -10.2%, 0.6%, -7.5, 1.8%

This is a subset (hit frequency here may not be typical).
